# PABP FP inh = PABP-poly(A) binding inhibition; P11940; PABP-poly(A) RNA binding, fluorescence polarization; inhibition, % at 35 µM; 1% of 290,000 active; AID 2014;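 active = 50% or more with normal probe brightness, or confirmed in later tests; inconclusive = above 50% with abnormal brightness, or retests that disagree; inactive = below 50% or failed in later tests; about a fifth of its hits are not listed in these tables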;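 note: calls also rest on retests at 20 µM and on dose response follow-up; controls were probe without protein and protein plus probe with vehicle; some compounds called inactive have numbers as strong as hits; many hits fall short of the cut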
# Target sequence (P11940 whole entry, looked up): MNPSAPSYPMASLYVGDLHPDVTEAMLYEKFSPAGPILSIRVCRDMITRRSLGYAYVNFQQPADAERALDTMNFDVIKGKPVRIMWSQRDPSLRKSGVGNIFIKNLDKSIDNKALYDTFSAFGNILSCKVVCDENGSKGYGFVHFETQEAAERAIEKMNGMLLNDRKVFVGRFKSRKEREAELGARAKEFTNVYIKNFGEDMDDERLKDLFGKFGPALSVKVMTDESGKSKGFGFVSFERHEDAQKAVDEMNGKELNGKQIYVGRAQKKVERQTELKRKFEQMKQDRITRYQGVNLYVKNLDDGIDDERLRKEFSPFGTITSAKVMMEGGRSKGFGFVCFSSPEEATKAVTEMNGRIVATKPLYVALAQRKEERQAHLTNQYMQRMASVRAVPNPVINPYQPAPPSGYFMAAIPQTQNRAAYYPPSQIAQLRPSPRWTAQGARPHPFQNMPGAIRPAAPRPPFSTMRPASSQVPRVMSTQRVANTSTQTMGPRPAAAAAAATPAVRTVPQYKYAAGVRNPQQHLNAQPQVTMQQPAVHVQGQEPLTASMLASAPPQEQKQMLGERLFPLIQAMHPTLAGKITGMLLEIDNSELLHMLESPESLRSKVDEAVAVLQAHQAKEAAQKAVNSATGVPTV
# eIF4H inh = inhibitors of RNA binding by human eIF4H. eIF4H fluorescence polarization binding assay. inhibition, % at 35 µM. 0.94% of 290,000 active. AID 2012;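 active = 50% or more with normal probe brightness, or confirmed in later tests; inconclusive = above 50% with abnormal brightness, or retests that disagree; inactive = below 50% or failed in later tests; about a fifth of its hits are not listed in these tables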;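 note: calls also rest on retests at 20 µM and on dose response follow-up; 0% = protein and probe with vehicle and 100% = probe without protein; strong numbers were not always called active; many hits fall short of the cut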
# Rce1 inhib = inhibitors of yeast Ras-converting enzyme; Q03530; yeast membranes, quenched prenylated peptide cleavage fluorescence; calls only; 0.27% of 290,000 active; AID 2563;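 active = fall in fluorescence gain of 50% or more versus controls, with final raw signal at or below 3038400; inconclusive = same 50% fall but final raw signal above 3038400; inactive = fall in fluorescence gain under 50%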;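 note: plate controls were neutral control wells for no effect and wells lacking membranes for full effect; tested at 10 µM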
# Target sequence (Q03530 whole entry, looked up): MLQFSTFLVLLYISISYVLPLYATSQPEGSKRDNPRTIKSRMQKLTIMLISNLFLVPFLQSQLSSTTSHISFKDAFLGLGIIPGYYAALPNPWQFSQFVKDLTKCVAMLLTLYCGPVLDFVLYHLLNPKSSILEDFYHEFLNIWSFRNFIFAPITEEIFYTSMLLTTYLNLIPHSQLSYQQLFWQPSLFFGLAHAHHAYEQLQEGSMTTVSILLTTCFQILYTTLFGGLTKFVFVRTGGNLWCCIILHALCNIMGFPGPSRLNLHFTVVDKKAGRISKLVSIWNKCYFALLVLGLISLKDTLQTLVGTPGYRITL
# CSC inhib = cancer stem cell inhibition | 1.1% of 300,000 active | inhibition, % at 7.5 µM | AID 2717 | cancer stem cell-like cells viability, luminescence;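 active = mean at 75% or more and at least half the replicates too; inconclusive = mean and replicates disagree; tested in HMLE shEcad cells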;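 note: 0% = median of negative and 100% = median of positive control wells; the first replicate is given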
# Env fusion inh = inhibitors of HIV Env-mediated cell fusion. HeLa-JRFL Env/CEM21 cell fusion, luciferase. inhibition, % at 12.3 µM. 1.1% of 360,000 active. AID 651610;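 active = mean replicate inhibition score of at least 50 and every replicate individually at or above 50; inconclusive = only one of the two criteria met; inactive = mean below 50 and not all replicates reaching 50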;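 note: 0% = plate neutral controls and 100% = maraviroc near 300 nM; one replicate is shown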
# UUG fidelity = alters start codon recognition fidelity in yeast | S. cerevisiae UUG-firefly luciferase reporter, luminescence/redox ratio | activity score, % at 18.7 µM | 0.13% of 350,000 active | AID 602363;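 active = replicate mean at a twofold rise or more, about +100% in these data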;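 note: firefly luciferase made from a UUG start codon reports start codon fidelity; reporter light over untreated wells divided by growth signal over untreated wells; some hits fall short of that in this replicate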
# MT1-MMP act inh = blocks activation of human MT1-MMP; P50281; HT1080 RFP-PRO-GFP cells, GFP/RFP ratio fluorescence, overnight; percent of plate control window, DMSO zero; GFP/RFP ratio change, % at 20 µM; 0.061% of 360,000 active; AID 651647;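 active = GFP/RFP ratio change of at least 30% with cell ATP level not reduced by more than half and red fluorescence within 50% of control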; note: strong numbers were not always called active
#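 Test system: HT1080 cells expressing an RFP-PRO-GFP fluorescent reporter construct / Compound dosing: single-point 20 µM compound, 1% DMSO / Schedule: cells overnight before dosing, compound overnight, 37 °C, 5% CO2 / Evaluation: GFP/RFP fluorescence ratio / Control set: DMSO and RFP-L50D-GFP cell wells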
# eIF4H inh retest = recorded beside eIF4H inh, whose call it bears; inhibition, %; compound at 20 µM; confirmation average;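 mean of two retest wells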
# PABP FP inh retest = further read-out of PABP FP inh, marked with its call; inhibition, %; compound at 20 µM; confirmation repeats;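 mean of two retest wells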
# MT1-MMP act inh RFP = further read-out of MT1-MMP act inh, marked with its call; RFP signal change, %; measured here: RFP expression control read;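 0 = vehicle wells; hits needed this value within 50% of zero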
# * = called active by the depositor; i = inactive; ? = inconclusive; . = no result given.
# The first five entries, to show the layout:
SMILES,PABP FP inh,eIF4H inh,Rce1 inhib,CSC inhib,Env fusion inh,UUG fidelity,MT1-MMP act inh,MT1-MMP act inh RFP,others
COc1cc(/C=C2\SC(=O)N(CC(=O)Nc3cccc(C)c3)C2=O)ccc1OC(C)C(=O)O (centres undefined),.,.,i,4,4,7,-3,2,
c1ccc(CCN(Cc2ccccc2)C2CCN(C3CCCC3)CC2)cc1,6,9,i,43,-1,.,-2,-2,
CCCCn1c(N)c(N(CC(C)C)C(=O)c2ccc(N3C(=O)c4ccccc4C3=O)cc2)c(=O)[nH]c1=O,.,.,i,-2,18,-11,-1,9,
CC(O)c1cccc(NC(=O)CCC(=O)O)c1 (centres undefined),-6,-3,i,-11,.,-4,2,4,
O=C(NC1CCCC1)C(c1ccc(F)cc1)N(Cc1ccccc1)C(=O)c1csnn1 (centres undefined),-6,-7,i,-25,54,10,-1,5,

# The listing, from the start:
SMILES,PABP FP inh,eIF4H inh,Rce1 inhib,CSC inhib,Env fusion inh,UUG fidelity,MT1-MMP act inh,MT1-MMP act inh RFP,others
COc1cc(/C=C2\SC(=O)N(CC(=O)Nc3cccc(C)c3)C2=O)ccc1OC(C)C(=O)O (centres undefined),.,.,i,4,4,7,-3,2,
c1ccc(CCN(Cc2ccccc2)C2CCN(C3CCCC3)CC2)cc1,6,9,i,43,-1,.,-2,-2,
CCCCn1c(N)c(N(CC(C)C)C(=O)c2ccc(N3C(=O)c4ccccc4C3=O)cc2)c(=O)[nH]c1=O,.,.,i,-2,18,-11,-1,9,
CC(O)c1cccc(NC(=O)CCC(=O)O)c1 (centres undefined),-6,-3,i,-11,.,-4,2,4,
O=C(NC1CCCC1)C(c1ccc(F)cc1)N(Cc1ccccc1)C(=O)c1csnn1 (centres undefined),-6,-7,i,-25,54,10,-1,5,
COc1cccc(C(=O)NCC(=O)OCC(=O)NC2CCCCC2)c1,.,.,.,-7,19,4,0,2,
Cn1c(=O)cc(SCC(=O)NCC2COc3ccccc3O2)c2ccccc21 (centres undefined),2,3,i,-18,-8,-5,2,-2,
CCN1CCCC1CNC(=O)Cn1cnc2sc(C)c(S(=O)(=O)N3CCC(C)CC3)c2c1=O (centres undefined),5,0,i,-7,.,.,.,.,
O=C(c1ccc(F)cc1)N1CCCC(C(=O)N2CCCCC2)C1 (centres undefined),1,-9,i,26,-1,-20,5,5,
CCOc1ccc(OCC)c2sc(C)nc12,1,4,i,1,-69,-5,0,-2,
CC(C(=O)NCC1(c2ccccc2)CCOCC1)N1CCOCC1 (centres undefined),6,-2,.,-5,14,.,-3,2,
CCc1onc(C)c1C(=O)Nc1cc(C)ccc1OC,-9,3,i,.,.,-16,-2,-1,
CC(C)c1ccc(S(=O)(=O)N2CCC(C(=O)N3CCN(c4cccc(Cl)c4)CC3)CC2)cc1,.,.,.,.,10,-7,-3,-13,
CCOc1ccccc1N(C)C(=O)c1sc2ncn(CC(=O)N3CCCCC3C)c(=O)c2c1C (centres undefined),1,-3,i,.,15,2,1,-4,
CCOC(=O)N1CCN(C(=O)c2ccc3oc(CCCc4ccccc4)nc3c2)CC1,0,-4,i,-9,-116,3,1,-3,
Cc1noc(C)c1CSc1nc2ccccc2c(=O)n1-c1ccc(F)cc1F,-4,-12,i,55,.,-4,-4,-15,
COc1ccc(OC2C(=O)N(Cc3ccc4c(c3)OCO4)C2c2cccs2)cc1 (centres undefined),3,-3,i,.,68*,0,-2,-16,
O=S(=O)(c1ccccc1Br)N1CCC(O)(c2cccnc2)CC1,-5,-7,i,.,9,.,3,5,
CCn1c(SCC(=O)NNC(=S)Nc2ccccc2)nnc1-c1ccc(Cl)cc1,6,6,i,-7,12,11,7,-1,
O=S(=O)(Nc1cccc(-c2cn3c(n2)SCC3)c1)c1cccs1,20,-7,i,5,25,.,1,-2,
CC(C)CN(C(=O)c1cccc(S(=O)(=O)N2CCN(C)CC2)c1)C1CCS(=O)(=O)C1 (centres undefined),.,.,i,-16,-4,.,4,-1,
COc1ccc(CN(CC(=O)NCc2ccco2)C(=O)CCC(=O)Nc2nccs2)cc1,0,-7,i,.,.,-9,1,0,
COc1ccc(S(=O)(=O)Nc2ccc3oc4ncccc4c(=O)c3c2)cc1OC,-13,4,i,0,-12,.,0,-3,
OCCNc1nc(Nc2ccccc2Oc2ccccc2)nc(N2CCCC2)n1,.,.,i,-1,-22,16,5,-1,
COc1ccc(/C=N/NC(=O)c2ccc(-c3ccccc3)cc2)cc1O,1,0,i,-5,-2,.,7,-5,
CC1CCCCC1NC(=O)c1ccncc1 (centres undefined),-5,-11,i,7,-4,-17,-7,1,
CCOC(=O)c1cc2sccc2n1CC(=O)O,0,1,i,-14,.,-24,0,3,
COc1ccc(C23CC4CC(CC(C4)C2)C3)cc1C(=O)NCCN(C)C,0,-9,i,4,-6,-1,1,-2,
O=C(Cn1cnc2c(oc3ccccc32)c1=O)c1ccccc1,4,-1,i,4,-86,-10,7,3,
Cc1cc(C(=O)NCc2ccc(C(=O)O)o2)c(C)o1,29*,74,i,-7,.,-5,5,8,eIF4H inh retest=1;PABP FP inh retest=99*
CCOC(=O)C1=CN(Cc2cccc(F)c2)S(=O)(=O)N(CC)C1CCc1ccccc1 (centres undefined),.,.,.,.,3,-13,-4,-9,
CC(=O)Nc1ccc(S(=O)(=O)N2CCC(C(=O)NCCc3c[nH]c4ccccc34)CC2)cc1,25,-4,i,-3,0,-1,5,1,
COc1cc(C(=O)Nc2ccc(S(=O)(=O)Nc3nccc(C)n3)cc2)c([N+](=O)[O-])cc1OC,15,-4,i,15,4,-3,-8,-3,
CC(C)(C)Nc1ncnc2sc(-c3ccccc3)cc12,-3,-8,i,10,31,-15,-3,-18,
CCN(CC)C1CC(=O)N(c2ccc(Br)cc2)C1=O (centres undefined),6,-6,i,-13,-43,-21,-2,-1,
CC(C)(C)c1ccc(C(=O)NC(=S)Nc2nc3c(s2)CCCC3)cc1,0,4,i,80*,-27,7,3,-2,
Cc1cc(NC(=O)CSc2nnc(C3CC3)n2N)c([N+](=O)[O-])cc1C,6,3,.,-6,-9,-4,0,2,
CCOC(=O)N1CCC(N2Cc3cccc(C(=O)N4CCN(c5cccc(Cl)c5)CC4)c3C2=O)CC1,2,4,i,-10,7,4,1,-4,
Cc1cccc2cc(CN(Cc3nnnn3Cc3ccccc3)C3CCCC3)c(=O)[nH]c12,20,-1,i,3,.,1,-3,-3,
COc1ccc(C2CC23N=C(c2ccccc2)OC3=O)cc1 (centres undefined),2,-2,i,-3,7,.,-1,2,
C=CCSc1nc2c(cc1C#N)CCC2,9,10,i,4,8,-6,-2,2,
Cc1ccc(N2C(=O)N(CC(=O)Nc3cc(Cl)ccc3C)C(=O)C2C)cc1 (centres undefined),.,.,i,-4,-13,0,5,1,
CSc1nc2c(c(=O)n1-c1ccc(C)cc1)SCC2,2,-4,i,4,-126,-20,0,1,
COc1ccccc1NC(=O)Cn1cnc2sc(C(=O)Nc3ccc(OC)c(OC)c3)c(C)c2c1=O,2,-2,i,1,1,-4,2,-1,
O=C(COc1ccc(F)cc1Br)N1CCN(c2ncccn2)CC1,5,5,i,-3,12,.,1,5,
CCC(=O)Nc1ccc(C(=O)CSc2nc3ccccc3[nH]2)cc1,?,74,i,-13,20,.,1,2,eIF4H inh retest=36
CC1CCCC(NC(=O)C2COc3ccccc3O2)C1C (centres undefined),.,.,.,10,0,3,1,-4,
CN(C(=O)COc1ccccc1)c1nc(-c2ccc(F)cc2)cs1,?,26,i,-6,8,.,2,1,
Cc1occc1C(=O)N/N=C/c1cccs1,6,-1,i,.,.,-18,-3,3,
CC(=O)Nc1ccc(S(=O)(=O)NCCC(=O)Nc2ccc(C)c(Cl)c2)cc1,-4,-6,i,-15,-13,5,1,2,
# Next section.
SMILES,PABP FP inh,eIF4H inh,Rce1 inhib,CSC inhib,Env fusion inh,UUG fidelity,MT1-MMP act inh,MT1-MMP act inh RFP,others
CN(C)S(=O)(=O)c1ccc(Cl)c(C(=O)Nc2ccc(S(=O)(=O)N3CCOCC3)cc2)c1,5,0,i,-4,-4,-13,0,-8,
CC(C)COCc1ccc(O)c2ncccc12,-8,18,i,10,6,.,-2,-5,
COc1cc(OC)c(S(=O)(=O)Nc2ccc(C(=O)O)cc2)cc1S(=O)(=O)Nc1ccc(C(=O)O)cc1,13,5,i,-13,-12,-14,0,3,
O=C(c1ccc([N+](=O)[O-])cc1[N+](=O)[O-])N1CCCC1,7,-5,i,-4,19,-1,1,1,
CCCOC(=O)c1c(NC(=O)CCCn2nc([N+](=O)[O-])c(Cl)c2C)sc(C(=O)OC)c1C,-6,-9,i,4,-3,.,3,2,
CC(=O)c1ccc(Nc2ccc(-c3ccccc3F)nn2)cc1,-5,10,i,-14,-126,-9,.,.,
COC(=O)c1ccc(COc2ccc(C=O)cc2OC)o1,4,0,i,4,-7,-14,1,1,
CCc1nc2c(OCc3ccc(OC)cc3)cccn2c1N(C)C(=O)c1ccncc1,.,.,.,.,2,-18,-2,3,
COc1ccc(C(=O)OCC(=O)c2ccco2)cc1[N+](=O)[O-],.,.,.,.,-6,-9,-1,7,
O=S(=O)([O-])CCC[N+]1(CC#Cc2ccccc2)CCCCC1,7,4,i,13,5,.,4,7,

# An excerpt from above in order of molar mass, rising.
SMILES,PABP FP inh,eIF4H inh,Rce1 inhib,CSC inhib,Env fusion inh,UUG fidelity,MT1-MMP act inh,MT1-MMP act inh RFP,others
CC(O)c1cccc(NC(=O)CCC(=O)O)c1 (centres undefined),-6,-3,i,-11,.,-4,2,4,
COc1ccc(C2CC23N=C(c2ccccc2)OC3=O)cc1 (centres undefined),2,-2,i,-3,7,.,-1,2,
COc1ccc(C(=O)OCC(=O)c2ccco2)cc1[N+](=O)[O-],.,.,.,.,-6,-9,-1,7,
Cc1ccc(N2C(=O)N(CC(=O)Nc3cc(Cl)ccc3C)C(=O)C2C)cc1 (centres undefined),.,.,i,-4,-13,0,5,1,
CC(=O)Nc1ccc(S(=O)(=O)N2CCC(C(=O)NCCc3c[nH]c4ccccc34)CC2)cc1,25,-4,i,-3,0,-1,5,1,
COc1cc(/C=C2\SC(=O)N(CC(=O)Nc3cccc(C)c3)C2=O)ccc1OC(C)C(=O)O (centres undefined),.,.,i,4,4,7,-3,2,

# (more compounds)
SMILES,PABP FP inh,eIF4H inh,Rce1 inhib,CSC inhib,Env fusion inh,UUG fidelity,MT1-MMP act inh,MT1-MMP act inh RFP,others
CCn1c(COc2cccc(C)c2)nnc1SCC(=O)Nc1cccc(C(=O)OC)c1,0,-15,i,-9,.,-13,7,0,
O=[N+]([O-])c1ccc(/C=C2\CCC(C3=CCCC3)=C2N2CCOCC2)cc1,3,16,i,14,9,.,2,3,
COc1cc(/C=N/NC(=O)c2ccccn2)ccc1OC(=O)c1ccccc1Br,-18,-7,i,-7,-24,-11,-3,-4,
Cc1sc2ncnc(SCC(=O)N(C(C)C)C(C)C)c2c1C,-3,-2,i,-7,9,.,1,0,
CC(=O)N(C)c1ccc(NS(=O)(=O)c2cc(Cl)ccc2Cl)cc1,-2,-5,i,-1,-4,3,2,5,
COc1ccccc1NC(=O)CNC(=O)c1ccccc1,-5,0,i,8,.,7,-2,-1,
CCSc1nnc(-c2ccc(OC)cc2)o1,-5,-4,i,4,.,-20,1,6,
COc1ccc(OC)c(S(=O)(=O)N2CCN(c3ccc(F)cc3)CC2)c1,-14,-5,i,57,-24,-3,1,-4,
CCCNC(=O)CN(c1ccc(F)cc1)S(=O)(=O)c1ccc2c(c1)OCCO2,-2,-1,i,-3,.,-13,5,1,

# Some of the compounds tested. The share of hits here may be higher or lower than overall.
